Bioassay records (PubChem)
CtBP-E1A blk: blocks the CtBP interaction with E1A; AID 651724; activity change, % (concentration not given with the values); 0.49% of 340,000 active; AlphaScreen GST-E1A/His-CtBP binding, 1536-well; hits give low values; control for the full effect not named in the record; in the data active means activity change below about -65%; inconclusive means about -30% to -65%; inactive means above about -30%; further: on the % scale 0 is the no-effect control and ±100 the full control effect
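Homogeneous bead-based format: GST-tagged E1A captured on glutathione donor beads, His-tagged CtBP on nickel acceptor beads; compounds precede bead addition by 2 h at 37 °C.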
gsp antagonist: antagonists of gsp mutant (McCune-Albright syndrome); Potency, µM (top dose mostly 76.9 µM), for inactives: at the highest dose activity change, negative = inhibition, most hits filed as inhibitors; AID 624288; 0.4% of 340,000 active; gsp-mutant cells, cAMP HTRF, 30 min; control for the full effect not named in the record; active = falling curve of any shape with a large fitted effect; inconclusive = falling curve, mostly with a smaller effect; inactive = flat or rising curve; cell line not stated here;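 further: intracellular cAMP measured with PDE inhibitor Ro 20-1724 present during compound exposure; potency means the concentration at half of the fitted maximal effect; on the % scale 0 is the no-effect control and ±100 the full control effect; nearly all actives have a fitted effect of over 65% in size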
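Cells, 2000/well, grown 16–24 h in DMEM 10% FBS with 0.5 mg/ml G418, then compounds plus […] (300 uM addition stock), 30 min at 37C. cAMP read by HTRF (cAMP-d2 and anti-cAMP antibody-K in lysis buffer) after 30 min RT.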
Six1-Eya2 blk: blocks human Six1 binding to Eya2. Q15475+O00167. AlphaScreen GST-Six1/His-Eya2 binding, biochemical; hits give low values; control for the full effect not named in the record. activity change, % (no concentration beside the values). 0.56% of 360,000 active; in the data active = activity change below about -65%; inconclusive = about -30% to -65%; inactive = above about -30%; further: on the % scale 0 is the no-effect control and ±100 the full control effect; compound concentration not given in the record
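GST-Six1 + His-Eya2 (5X stock: 250/500 nM); Tris pH 8.0, 300 mM NaCl, 0.05% BSA, 0.02% Tween 20; GSH donor/Ni acceptor beads; 1 h 37 °C dark; AlphaScreen readout.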
D2 potentiator: potentiates the human D2 dopamine receptor allosterically. P14416. DiscoveRx D2 beta-arrestin cells, luminescence, 90 min; 100% = 57 uM dopamine signal. potentiation, % (test concentration not listed). 0.23% of 360,000 active. AID 624464; active = potentiation of 50% or more; inconclusive = 30% to 50%; inactive = 30% or less;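 further: compound concentration not given in the record; tested on top of an EC20 dose of dopamine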
Target sequence (P14416 whole entry, looked up): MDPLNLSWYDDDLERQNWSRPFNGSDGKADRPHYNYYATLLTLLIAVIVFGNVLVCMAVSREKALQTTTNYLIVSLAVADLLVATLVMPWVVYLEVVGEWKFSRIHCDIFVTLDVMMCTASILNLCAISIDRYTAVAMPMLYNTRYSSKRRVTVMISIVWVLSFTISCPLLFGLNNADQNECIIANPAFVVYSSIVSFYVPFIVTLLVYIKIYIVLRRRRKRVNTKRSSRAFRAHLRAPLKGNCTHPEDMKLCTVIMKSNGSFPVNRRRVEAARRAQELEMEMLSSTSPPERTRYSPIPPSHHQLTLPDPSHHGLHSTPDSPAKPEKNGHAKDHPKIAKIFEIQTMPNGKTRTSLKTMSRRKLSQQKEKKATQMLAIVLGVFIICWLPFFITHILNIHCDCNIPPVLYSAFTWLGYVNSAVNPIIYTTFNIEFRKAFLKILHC
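PathHunter beta-arrestin assay in DiscoveRx D2 cells. Compounds were added with an EC20 of dopamine (50 nM final) for 90 min at 37 deg C. Luminescence was read 1 h after detection reagent, with 57 uM dopamine as the EC100 control.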
gsp agonist: agonists of gsp mutant (McCune-Albright syndrome). Potency, µM (doses to about 76.9 µM), for the others: at the top dose activation (cAMP increase), most hits filed as activators. 0.13% of 340,000 active. gsp mutant cells, cAMP HTRF, 30 min; control for the full effect not named in the record; active = well fitted activation curve with a large enough effect; inconclusive = small, poorly fitted or top-dose-only effect, or another doubt; inactive = no such curve, though single readings can be large or run the other way; cell line not stated here;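 further: phosphodiesterase inhibitor Ro 20-1724 added with compounds to block cAMP breakdown; potency means the concentration at half of the fitted maximal effect; nearly all actives have a fitted effect of over 60% in size; about a fifth of the inactives were tested at one dose only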
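Cells in DMEM/10% FBS with G418 were pretreated with compounds in DMSO plus […] (300 uM stock) for 30 min at 37C. cAMP was measured by HTRF (cAMP-d2 plus anti-cAMP antibody-K) after 30 min at room temperature.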
D2 ag: agonists of human D2 dopamine receptor (beta-arrestin); 0.084% of 360,000 active; activation, % (concentration not given with the values); DiscoveRx PathHunter D2 beta-arrestin, luminescence, 90 min; 100% = 57 uM dopamine signal; AID 624465; P14416; in the data active = activation above about 40%; inconclusive = about 15% to 40%; inactive = below about 15%; further: compound concentration not given in the record; the text of the record calls up to 30% inactive
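Agonist mode: compounds alone added to overnight-plated D2 PathHunter cells for 90 min at 37 C, with 57 uM final dopamine (EC100) defining full response. Beta-arrestin recruitment detected by chemiluminescent reagent, read after 1 h at ambient temperature.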
Active calls of the source: *; ? = inconclusive; nt = not tested or not shown; [ ] = another dose, or the depositor's remark.

SMILES | CtBP-E1A blk | gsp antagonist | Six1-Eya2 blk | D2 potentiator | gsp agonist | D2 ag
CC(C)CNC(=O)C(=O)Nc1cc2c3c(c1)C(C)C(=O)N3CCC2 (configuration not stated) | nt | 6% | 2 | -2 | -1% | 2.9
CC(C)C(=O)Nc1c2c(nc3c1CCC3)CCCC2 | -3 | -4% | 7 | -12 | -62%[inhibitor] | -0.2
O=C1CCCN1CN1CCCCC1 | 11 | 2% | 9 | 11 | 0% | -1.3
O=C(O)c1cc(C2CC2)nc2ccccc12 | nt | 7% | 6 | -12 | -40%[inhibitor] | -4.6
S=C(NCCc1ccccc1)Nc1ccccc1 | -13 | 7% | 4 | -5 | -4%[15.4 µM] | -0.2
CCCCN1C(=O)C(CC(=O)NCCCN(C)C)CC(C(=O)N2CCOCC2)=C1C (configuration not stated) | -10 | nt | -4 | -6 | 1% | -1.1
O=C(OCc1ccc([N+](=O)[O-])cc1)c1cc(=O)c2ccccc2o1 | -11 | 8% | 0 | -1 | -15%[15.4 µM] | -4.5
CC(=O)Nc1ccc(SCC(=O)Nc2ccccc2Oc2ccccc2)cc1 | 21 | -14% | 7 | 2 | 9% | -1.9
CCN(CC)S(=O)(=O)c1cccc(NC(=O)/C=C/c2cccc([N+](=O)[O-])c2)c1 | -28 | ? | -29 | 2 | -29% | 1.1
Cc1cc(NCCCN2CCOCC2)n2nc(C)c(-c3ccc(F)cc3)c2n1 | -16 | 11% | -15 | -20 | 0% | -3.6
COc1ccc(-c2c(C#Cc3ccsc3)c3cc(-c4ccc5[nH]ccc5c4)ccc3n2C)cc1 | -1 | 9% | 4 | -5 | -113%[inhibitor] | -1.6
Cc1nc2scc(C)n2c(=O)c1S(=O)(=O)NCC1CCN(Cc2ccc(F)cc2)CC1 | -13 | 14% | 2 | -28 | ? | -4.2
COc1ccc(-c2cc(C(=O)NCc3ccco3)c3ccccc3n2)cc1 | nt | -18% | 7 | -2 | 3% | -1.5
Cc1cc(C)cc(N(CC(=O)N2CCCCCC2)S(C)(=O)=O)c1 | 5 | 12% | 2 | 2 | -28% | 6.6
CCOC(=O)c1ccc(NC(=O)CSc2nc3sc(C(=O)O)c(C)c3c(=O)[nH]2)cc1 | 11 | 3% | 3 | 7 | ? | -3.6
COc1ccc(S(=O)(=O)N(CC(=O)N2CCN(C)CC2)c2ccccc2)cc1OC | 10 | 7% | 4 | -25 | ? | -1.6
CC12C=CC3(O1)C(C(=O)N1CCCOC13)C2C(=O)O (configuration not stated) | 0 | -1% | 5 | -2 | -2%[15.4 µM] | -2.6
CCOC1(C)OCC(=O)[C@]2(CCC3C4CCC5=CC(=O)C=CC5(C)C4C(=O)CC32C)O1 (some centres not stated) | 9 | -20% | 8 | -3 | 22%[15.4 µM] | 1.0
CCc1cccc(C)c1NC(=O)CC1Oc2ccc(C)cc2NC1=O (configuration not stated) | 5 | 5% | 6 | -1 | -27% | 10.0
CCOC(=O)c1ccc(S(=O)(=O)Nc2nc3cc(S(=O)(=O)NC4=NCCCCC4)ccc3s2)cc1 | 0 | -29% | -4 | -6 | -3%[15.4 µM] | -0.4
CCc1cccc(OCCN2CCCC2)c1 | 0 | 9% | 7 | -12 | 19%[15.4 µM] | -4.2
CC(NC(=O)CCNS(=O)(=O)c1ccc2c(c1)oc(=O)n2C)c1ccccc1 (configuration not stated) | 3 | 10% | -6 | 4 | 21% | 1.2
O=C1CC2(CC(c3ccc(Cl)cc3)=NO2)C(=O)N1c1ccccc1 (configuration not stated) | 0 | -11% | 6 | -7 | -2%[15.4 µM] | -3.4
COc1ccc(S(=O)(=O)N2CCCCC2)cc1NC(=O)CCNC(=O)c1ccccc1Cl | nt | -8% | 13 | -13 | -12% | -1.1
CC(NC(=O)COC(=O)c1cc(Cl)nc(Cl)c1)c1ccccc1 (configuration not stated) | -10 | 6% | -13 | -1 | -3%[15.4 µM] | 3.0
SMILES | CtBP-E1A blk | gsp antagonist | Six1-Eya2 blk | D2 potentiator | gsp agonist | D2 ag
Cc1csc(NC(=O)C2CCCCC2C(=O)O)n1 (configuration not stated) | 0 | -7% | 6 | -15 | 0% | 1.0
Fc1ccc(/C=C/c2nnc(-c3cccs3)o2)cc1 | 3 | -1% | 5 | 1 | 11% | -1.4
Cc1cc(C)c2c(n1)nn1c(NCCN3CCOCC3)cc(C)nc21 | -3 | 2% | -2 | -3 | -2% | 0.3
CCOC(=O)c1c(C)[nH]c(C(=O)N2CCN(C(=O)OCC)CC2)c1C | 4 | -2% | 2 | -3 | 8% | 2.5
COc1ccc(-c2cc(C(=O)N3CCCCCC3)no2)cc1OC | 2 | 5% | 1 | -5 | 2%[15.4 µM] | 1.5
O=C(O)c1ccc(-c2sc(Nc3ccccc3)n[n+]2-c2ccccc2)cc1 | -15 | 1% | 6 | -22 | nt | 1.5
Cc1ccc([C@@H]2CC=C(C(=O)O)[C@H](c3ccc(C(C)(C)C)cc3)N2S(=O)(=O)c2ccc(C)cc2)cc1 | 0 | -19% | -1 | nt | nt | 5.4
COc1ccc(OCC(=O)NNC(=O)c2ccccc2OCc2c(C)noc2C)cc1 | -1 | 3% | 6 | -5 | 2%[15.4 µM] | -1.8
Cc1nc2ccc(C(=O)O)cc2c2c1CC(CN)O2 (configuration not stated) | nt | 6% | 3 | -18 | 0% | -1.3
Cc1ccc(C(=O)O/N=C/c2c(C(F)(F)F)nn(C)c2Sc2ccc(Cl)cc2)cc1 | -12 | 6% | 5 | 5 | -32%[inhibitor] | -0.4
O=C(c1cn(CC(=O)N2CCCC2)c2ccccc12)C1CCCCC1 | 5 | 7% | 7 | -4 | -6% | 0.4
CC(C)n1cnc2c(oc3ccccc32)c1=O | 13 | 11% | 0 | -2 | 0%[15.4 µM] | -0.3
COc1cccc(N2C(=O)CC(N3CCc4ccccc4C3)C2=O)c1 (configuration not stated) | 3 | 16% | 1 | -6 | -50%[inhibitor] | -3.9
CC(C)=CCN1CCN(Cc2nc(-c3ccc(F)cc3)cs2)CC1CCO (configuration not stated) | -4 | 8% | 0 | -26 | 25% | -5.0
CN(Cc1ccccc1F)Cc1cc(=O)oc2cc(O)c(Cl)cc12 | -1 | ? | 10 | -1 | 14% | -2.2
N#Cc1nc(COc2cccc(Cl)c2)oc1NCCN1CCOCC1 | -4 | 12% | -3 | -6 | -11%[15.4 µM] | 3.0
N#Cc1cc2c(nc1SCC(=O)Nc1nccs1)CCCCC2 | ? | 23% | ? | -22 | ? | 2.8
Cn1cnnc1SCC(=O)Nc1ccc(N2CCCCC2)cc1 | nt | -1% | -3 | -1 | 11% | -2.8
Cc1ccc(S(=O)(=O)Oc2ccc3c(c2)O/C(=C\c2cccnc2)C3=O)cc1 | 4 | 0% | 0 | 4 | 1% | 1.3
O=C(NC1CCCC1)C(c1ccncc1)N(C(=O)c1ccco1)c1ccc(Cl)cc1 (configuration not stated) | 16 | -32% | 9 | 1 | 23%[15.4 µM] | -0.1
CCCn1nc(C(=O)Nc2ccc3nc(C)sc3c2)c2ccccc2c1=O | nt | -18% | -2 | -1 | -3% | -3.3
CCCN1CCC(=O)N([C@H](CSc2ccc(OC)cc2)Cc2ccccc2)CC1 | -11 | 2% | -11 | -20 | -16% | 0.7
COc1ccc(-c2csc(NC(=O)CSCC(=O)Nc3cc(C)on3)n2)cc1OC | ? | -9% | -22 | -3 | -11%[15.4 µM] | 0.2
CCOC(=O)c1nc(C)nc(Sc2n[nH]c(-c3ccccc3)n2)c1C | nt | -13% | -4 | -14 | -21% | -1.6
Cc1ccc(C(=O)NNC(=O)c2cc(C)nc3ccccc23)cc1 | 4 | 13% | -4 | 10 | ? | -1.3
SMILES | CtBP-E1A blk | gsp antagonist | Six1-Eya2 blk | D2 potentiator | gsp agonist | D2 ag
COc1ccc(C(=O)COC(=O)c2cc(=O)[nH]c3ccccc23)c(OC)c1 | 1 | -10% | 11 | -3 | 18% | -0.5
CCOc1ccc(Nc2ccc(S(=O)(=O)N3CCOCC3)cc2[N+](=O)[O-])cc1 | -17 | nt | ? | -4 | -8% | -3.9
Cc1nc(-c2ccccc2)cc(-c2ccccc2)n1 | 26 | 0% | 31 | -4 | 10%[15.4 µM] | 2.2
O=C(c1cc(F)ccc1F)C1CCCN(C(=O)c2ccc3nccnc3c2)C1 (configuration not stated) | 3 | -4% | 6 | -3 | -5% | -2.9
Cc1ccc(C2=NN(S(C)(=O)=O)C(c3ccc4c(c3)OCO4)C2)cc1 (configuration not stated) | 17 | -20% | -8 | -27 | -5% | 0.7
C[C@@]12C(=O)Nc3cc(Cl)ccc3C(=O)N1[C@H]1c3cc(Br)ccc3OC[C@@H]1[C@@H]2c1ccccc1 | -12 | -3% | -8 | -7 | nt | -0.2
Cc1ccc(/C=C2/CNC/C(=C/c3ccc(C)cc3)C2=O)cc1 | -9 | 7% | 1 | -21 | ? | 3.0
Cc1noc(C)c1C(=O)Nc1ccc(-n2ccc(C(F)(F)F)n2)cc1 | 8 | -11% | -5 | 1 | -9%[15.4 µM] | 3.6
C=CCn1c(C)c(C(C)=O)c(SC)nc1=S | 1 | 3% | -3 | 11 | -10% | -0.6
N[C@@H](CO)c1nnc([C@H](Cc2ccc(O)cc2)NC(=O)C2CCNCC2)o1 | -7 | 8% | -3 | -1 | nt | -0.8
Cc1cc(=O)oc2c(CN3CCCC3)c(O)ccc12 | -1 | 5% | 4 | 6 | ? | -0.1
Cc1ccccc1CS(=O)(=O)c1cnc2ccccc2n1 | -2 | -1% | 6 | 0 | 24% | -1.8
O=C1NCN(c2ccccc2)C12CCN(c1nnnn1-c1ccccc1)CC2 | 0 | -19% | 1 | 12 | -2% | -4.7
O/N=C1\CCSc2ccc(F)cc21 | nt | 4% | 7 | -10 | 1% | -4.2
Cc1ccc(C(=O)c2cc([N+](=O)[O-])ccc2N2CCN(C)CC2)cc1 | -13 | 20% | -15 | -19 | -4% | -5.5
C[C@H]1CN([C@@H](C)CO)C(=O)Cc2cc(NC(=O)CCC(F)(F)F)ccc2O[C@H]1CN(C)C(=O)Nc1ccc(F)cc1 | 5 | 10% | 2 | 2 | nt | -1.6
O=C(OCCNC(=O)c1ccc2ccccc2n1)c1ccc(F)cc1 | 3 | -23% | 21 | 3 | 4% | -0.9
C=C(C)CCC1(C)NC(=O)N(c2ccccc2)N1 (configuration not stated) | -3 | -12% | 0 | 2 | -1%[15.4 µM] | 3.3
